# Bioassay records (PubChem BioAssay)
# GIV-Gai inh: inhibitors of GIV GBA-motif binding to rat Galpha-i3; P08753; Galpha-i3/FITC-GIV peptide fluorescence polarization, 90 min; active compounds read low; scaled: aluminum fluoride 0%, vehicle 100%; percent of control (FP), % (test concentration not listed); 0.42% of 210,000 active;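 active = replicate mean at 85% of control or lower, very high polarization wells dropped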;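 also: lower values mean more displacement of the GIV peptide from Galpha-i3; wells of about 15 µL received 100 nL stock; the first replicate is given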
# Target sequence (P08753 whole entry, looked up): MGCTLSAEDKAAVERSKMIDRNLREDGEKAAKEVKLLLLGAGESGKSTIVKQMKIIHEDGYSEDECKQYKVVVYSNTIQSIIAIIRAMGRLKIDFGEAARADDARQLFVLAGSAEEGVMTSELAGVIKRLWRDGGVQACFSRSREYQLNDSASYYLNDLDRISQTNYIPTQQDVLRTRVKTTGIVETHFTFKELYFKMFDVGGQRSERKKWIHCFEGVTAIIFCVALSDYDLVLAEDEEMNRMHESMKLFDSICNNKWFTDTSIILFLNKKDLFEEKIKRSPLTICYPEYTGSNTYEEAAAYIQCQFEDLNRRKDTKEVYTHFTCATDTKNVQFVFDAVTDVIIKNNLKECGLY
# HCMV UL50-53 inh: inhibitors of HCMV UL50-UL53 nuclear egress complex interaction | HTRF UL50-UL53 interaction, normalized percent inhibition | inhibition, % (no concentration beside the values) | 0.15% of 190,000 active | AID 1918969;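 active = both replicates at 50% or more, plus weaker picks with an unusually low signal ratio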;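 also: stock transfer was 100 nL into about 20 µL; 0% = negative control wells and 100% = wells with untagged competitor protein; inactives centre near -12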
# Sa growth 42C: inhibitors of Staphylococcus aureus growth at 42 °C | relative growth, % (no concentration beside the values) | 0.53% of 170,000 active | AID 720641 | S. aureus RN4220 growth, OD600, 20 h; active compounds read low;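 active = growth at 42 °C up to 50% and 20 or more points under that at 30 °C, or under 10% at both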;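 also: 300 nL library stock went into each well; scaled to the means of positive and negative controls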
# Sa growth 42C second temp: also measured in Sa growth 42C; calls as there; relative growth, %; measured here: growth at 30 °C;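 optical density after 20 h as mean of two plates; 100% = untreated growth and lower means inhibition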
# The depositor's hits bear a star; x = no result given; & = joins results of further samples.
# The line under a structure holds: GIV-Gai inh	HCMV UL50-53 inh	Sa growth 42C	Sa growth 42C second temp
1. O=C(CCC1CCCCC1)NC1C=CS(=O)(=O)C1 (stereo not drawn)
    x	-8	86	91
2. COc1cccc(CNS(=O)(=O)c2ccc3c(c2)CC(C)N3C(=O)C2CCC2)c1 (stereo not drawn)
    106	x	92	98
3. COc1ccc(NC(=O)c2ccc(S(=O)(=O)c3ccc(Br)cc3)nc2)c(OC)c1
    104	-24	x	x
4. O=C(c1ccc2c(Cl)c3c(nc2c1)CCCC3)N1CCCCCC1
    101	x	87	84
5. O=c1oc(-c2cccs2)nc2c(Br)cc(Br)c(F)c12
    102	4	99	88
6. Cc1nc(C2CC(=O)OC23CCCCC3)cs1 (stereo not drawn)
    97	2	80	91
7. CCc1ccccc1Nc1nn2c(=O)c3ccc(C(=O)NC4CCC(C)CC4)cc3nc2s1 (stereo not drawn)
    97	x	122	93
8. Cc1nn(C(=O)c2ccccc2)c(C)c1S(=O)(=O)N1CCCCCC1
    104	x	76	93
9. O=C(CCCOc1ccccc1)Nc1ncn[nH]1
    104	-13	99	69
10. CCCc1nc2ccccc2n1C(=S)SC
    x	-92	95	72

# From entry 4 to 8, as listed above:
# The line under a structure holds: GIV-Gai inh	HCMV UL50-53 inh	Sa growth 42C	Sa growth 42C second temp
4. O=C(c1ccc2c(Cl)c3c(nc2c1)CCCC3)N1CCCCCC1
    101	x	87	84
5. O=c1oc(-c2cccs2)nc2c(Br)cc(Br)c(F)c12
    102	4	99	88
6. Cc1nc(C2CC(=O)OC23CCCCC3)cs1 (stereo not drawn)
    97	2	80	91
7. CCc1ccccc1Nc1nn2c(=O)c3ccc(C(=O)NC4CCC(C)CC4)cc3nc2s1 (stereo not drawn)
    97	x	122	93
8. Cc1nn(C(=O)c2ccccc2)c(C)c1S(=O)(=O)N1CCCCCC1
    104	x	76	93

# Continued.
# The line under a structure holds: GIV-Gai inh	HCMV UL50-53 inh	Sa growth 42C	Sa growth 42C second temp
11. COc1cccc(-c2[nH]nc(SC)c2C#N)c1
    107	-19	54	31
12. Cc1cccc(OCC(O)Cn2c(C3CC3)nc3ccccc32)c1 (stereo not drawn)
    106	-6	x	x
13. CC(=O)c1cc(C(=O)Nc2cccc(C)c2)c2ccccn12
    104	x	87	92
14. CC(=O)Nc1ccc(-n2c(C)nc(=O)c(-c3ccccc3)c2C)cc1
    98	x	84	96
15. CCNC(=S)N1CCC(NC(=O)C23CC4CC(CC(C4)C2)C3)CC1
    101	-16	91	90
16. COc1ccc(CCNC(=O)C2CC(=O)N(C3CCCC3)C2)cc1OC (stereo not drawn)
    104	-9	89	86
17. CCOc1ccc(NC(=O)Cn2cc(S(=O)(=O)c3ccc(C)cc3)c(=O)c3cc(F)ccc32)cc1
    104	-26	109	92
18. O=C(C1CCN(c2ncnc3c2sc2ncccc23)CC1)N1CCCCC1
    102	-15	x	x
19. CCOC(=O)c1cn[nH]c1S(=O)(=O)N1CCN(C)CC1
    103	10	x	x
20. CSc1nc(Nc2ccc(F)cc2)c(C#N)c(-c2ccccc2)n1
    95	10	96	88
21. COc1cc(C2CC(=O)Nc3c2c(C)nn3-c2nc(C)cc(C)n2)cc(OC)c1O (stereo not drawn)
    97	-38	94	83
22. CCSC1=C(C#N)C(=O)NC(c2ccco2)S1 (stereo not drawn)
    98	x	112	76
23. O=C(CCCSc1ccccc1)Nc1ccc2c(c1)OCO2
    x	-3	85	95
24. Cc1ccc(-c2ccc(=O)n(CC(=O)NC3CCCC3)n2)cc1
    103	x	126	87
25. O=C1C2C3C=CC(C3)C2C(=O)N1c1ccc(-c2nc(-c3ccccc3)c3ccccc3n2)cc1 (stereo not drawn)
    105	-19	x	x
26. CCC(C)NS(=O)(=O)c1ccc(-n2cccn2)cc1 (stereo not drawn)
    107	x	91	95
27. COc1cccc(-c2cc(=O)c3ccccc3o2)c1N
    105	-55&-64&-62&-23&-23&-90&-119	x	x
28. Cn1c(=O)c(C(=O)NC2CCCCCC2)c(O)c2ccccc21
    101	-10	129	113
29. COc1ccc(CN(C)C(=O)c2cccc(S(=O)(=O)N3CCOCC3)c2)cc1F
    x	-17	94	82
30. CN1CCN(/N=C/C2=C(O)CC(c3ccccc3)CC2=O)CC1 (stereo not drawn)
    101	-3	106	103
31. Cc1cccc(-n2cc(-c3ccccc3)c3c(NC4CCCC4)ncnc32)c1
    105	x	85	96
32. CCCc1nc2nc(C)cc(NCCN3CCN(c4cccc(Cl)c4)CC3)n2n1
    108	19	97	79
33. CCOC(=O)c1cc2c(C)[nH]c(C)c2cc(C(=O)OCC)c1=O
    110	-52	x	x
34. CCOC(=O)/C(C#N)=N\Nc1cc(C(N)=O)cc(C(N)=O)c1
    98	-81	96	90
35. CC(C)n1cnc2nc(COc3ccccc3NC(=O)Nc3ccccc3)cc(=O)n21
    100	-1	x	x
36. O=S(=O)(Cc1ccccc1)Nc1noc2ccccc12
    105	x	108	86
37. O=c1c2sccc2n2c(SCc3ccc(F)cc3)nnc2n1Cc1ccccc1
    100	-28	x	x
38. Cc1[nH]nc2c1C(c1cc(F)ccc1F)CC(=O)N2 (stereo not drawn)
    99	-17	x	x
39. COc1ccc2[nH]c3c(c2c1)CCNC3CC(=O)O (stereo not drawn)
    106	x	98	88
40. COc1ccc(CCN=C2SCC(=O)N2Cc2ccccc2)cc1OC
    107	x	92	77

# Reprinted from the part before: 2 entries; new compounds follow.
# The line under a structure holds: GIV-Gai inh	HCMV UL50-53 inh	Sa growth 42C	Sa growth 42C second temp
39. COc1ccc2[nH]c3c(c2c1)CCNC3CC(=O)O (stereo not drawn)
    106	x	98	88
40. COc1ccc(CCN=C2SCC(=O)N2Cc2ccccc2)cc1OC
    107	x	92	77
41. CCSc1ncc(Cl)c(C(=O)Nc2nc3ccc(Cl)cc3s2)n1
    109	14	94	77
42. Cn1c(Cc2nnc(Nc3ccc(S(=O)(=O)N4CCOCC4)cc3)s2)nc2ccccc21
    x	-15	92	93
43. ClC(=Nc1ccccc1)c1ccccc1
    x	2	87	84
44. COc1cc(C(=O)Nc2cc(C)c3c(=O)oc4ccccc4c3n2)cc(OC)c1OC
    152	12	101	92
45. Cn1c(=O)n(C)c2cc(C(=O)O)ccc21
    95&98	-14&-33	100	89
46. O=c1oc2ccccc2n1CCCOc1ccccc1Cl
    99	1	96	76
47. c1ccc(Nc2ncnc3c2sc2ncccc23)cc1
    103	0	85	90
48. CCOC(=O)C1CCN(C(=O)Cn2ncc3c4ccccc4n(C)c3c2=O)CC1
    108&104	-10&-29	100	92
49. CC1(C)C(=O)Nc2ccccc2N1C(=O)CSc1nc2ccccc2[nH]1
    x	-5	87	94
50. Cc1ccc(C)c(NC(=O)CCn2cnnn2)c1
    106	18	99	97
51. O=C(CN1C(=O)S/C(=C\c2ccc(Cl)cc2)C1=O)Nc1cc([N+](=O)[O-])ccc1O
    96	-18	x	x
52. COc1ccc(-c2noc(CSc3nnc(-c4ccncc4)n3-c3ccc(OC)cc3)n2)cc1
    108	7	82	87
53. Cc1nc(C)c(C(=O)N/N=C/c2cc(Br)ccc2O)s1
    x	-24	98	94
54. O=C(Nc1ccccc1F)c1cc2c(Cl)ccc3c2n1CCO3
    101	-15	101	103
55. Cc1ccc2nc(Cl)c3cc(C(=O)N(C)C4CCCCC4)sc3c2c1
    102	-15	108	90
56. COc1ccc(C2=NC(c3sccc3C)NC(c3cc(Cl)ccc3O)C2)cc1 (stereo not drawn)
    108	x	92	65
57. C=CCn1c(SCC(=O)Nc2ccc3c(c2)OCO3)nnc1-c1ccccc1F
    x	-8	86	91
58. COc1ccc(-c2noc(-c3ccc(NC4CCCCC4)c([N+](=O)[O-])c3)n2)cc1
    94	-11	105	89
59. Cn1c(C(=O)c2ccccc2)nc2ccccc21
    99	-31	84	74
60. O=C(NCCSCc1ccccc1Cl)C1CCN(S(=O)(=O)Cc2ccccc2)CC1
    101	-18	113	86
61. CC(=O)N1c2ccccc2C(=O)C1N(Cc1ccccc1)C(C)C (stereo not drawn)
    103	-23	104	83
62. Cc1coc(C)c1C(=O)CC1(O)C(=O)Nc2cc(Cl)cc(Cl)c21 (stereo not drawn)
    101	-31	101	96
63. CCCCN(C)C(=O)c1cn(C)c2ccc(S(=O)(=O)N(CC)CC)cc2c1=O
    109	-2	89	98
64. COC(=O)c1cc(-c2cccnc2)nn1-c1nc(C)cc(C)n1
    x	-24	80	98
65. CC1=CC(=O)OC1Cc1ccc2ccccc2n1 (stereo not drawn)
    102	x	80	96
66. Oc1c(Cl)cc(Cl)cc1C1Nc2cccc3cccc(c23)N1
    107	-4	81	55
67. Cc1ccc(N2CCn3c2nc2c3c(=O)n(CCCc3ccccc3)c(=O)n2C)cc1C
    106	x	129	102
68. CS(=O)(=O)NCc1c(Cl)cccc1Sc1ccc(Cl)cc1
    106	-8	94	86
69. COc1cccc(-c2nnc(-c3cc4cc(Cl)ccc4oc3=O)o2)c1
    104	14	104	99
70. Cc1cc(C)n(-c2n[nH]c(=S)n2N)n1
    x	-6	112	92
71. Cc1cc2oc(C(=O)Nc3cccc(-c4nc5ccccc5o4)c3)c(C)c2cc1Cl
    105	0	107	96
72. CCc1cccc(NC(=O)CCc2nc3cccnc3n2Cc2ccc(OC)cc2)c1
    104&109	-11&-11	105	93
73. Nc1nonc1C(=O)NCc1ccco1
    x	-11	88	83
74. O=C(Cn1c2ccccc2c2cn[nH]c(=O)c21)N1CCCCC1
    102	x	109	80
75. CCOC(=O)c1c(-c2ccccc2)csc1NC(=O)c1csnn1
    100	-14	x	x
76. CCOC(=O)c1sc(NC(=NC)c2ccco2)cc1C
    x	-42	81	88
77. CCc1ccc(NC(=O)CSc2nc3ccccc3c(=O)n2CCC(=O)NC2CCCCC2)cc1
    100	x	80	95
78. O=C(O)c1cc(NS(=O)(=O)c2ccc(F)cc2)cnc1N1CCCC1
    77*	-57	x	x
79. Cc1cc2nnc(SCC(=O)Nc3ccccc3F)n2c2ccccc12
    102	-4	x	x
80. O=C(NCCc1ccccc1)C1CCN(C(=O)c2sccc2-n2cccc2)CC1
    103	-24	x	x

# Profiles as entered above.
# CCOC(=O)c1c(-c2ccccc2)csc1NC(=O)c1csnn1 in the list: GIV-Gai inh: 100; HCMV UL50-53 inh: -14; Sa growth 42C: x; Sa growth 42C second temp: x
# CCc1cccc(NC(=O)CCc2nc3cccnc3n2Cc2ccc(OC)cc2)c1 in the list: GIV-Gai inh: 104&109; HCMV UL50-53 inh: -11&-11; Sa growth 42C: 105; Sa growth 42C second temp: 93
# Cc1cc2nnc(SCC(=O)Nc3ccccc3F)n2c2ccccc12 in the list: GIV-Gai inh: 102; HCMV UL50-53 inh: -4; Sa growth 42C: x; Sa growth 42C second temp: x

# Later entries
# The line under a structure holds: GIV-Gai inh	HCMV UL50-53 inh	Sa growth 42C	Sa growth 42C second temp
81. O=C(Nc1ccccc1F)NC1CCN(Cc2nnnn2Cc2ccc(F)cc2)CC1
    110	11	112	83
82. COc1cc(CCC(=O)NCc2ccc(S(N)(=O)=O)cc2)cc(OC)c1OC
    x	-26	82	91
83. Nc1nc(C23CC4CCC(CC(C4)C2)C3)cs1
    103	x	92	86
84. CCc1ccccc1NC(=O)Cn1nnc(C(=O)OC)c1C(=O)OC
    96	-10	100	90
85. O=C1c2ccccc2C(=O)c2c1oc1c3c(ccc21)OCN(CCC1=CCCCC1)C3
    x	-103	7.0*	6.4*
86. N#CC(C(=O)c1ccc(F)cc1)c1ccccn1 (stereo not drawn)
    x	18	91	94
87. Cc1ccc(NC(=O)Cn2c(=O)n(Cc3nc(-c4ccccc4)no3)c(=O)c3cc4c(cc32)OCO4)cc1F
    98	x	86	95
88. Cc1cccc(C(=O)OCC(=O)Nc2ccc3[nH]c(=O)[nH]c3c2)c1C
    x	4	83	88
89. COc1cccc2c(=O)cc(C)[nH]c12
    107	-22	91	84
90. CCOC(=O)c1nc2ccccc2nc1NC1CCC(C)CC1 (stereo not drawn)
    110	-13	x	x
91. COc1cc(/C=C2\SC(NC(C)=O)=NC2=O)ccc1Oc1ccc(C(F)(F)F)cc1[N+](=O)[O-]
    109	-23	x	x
92. Cc1cccc(NC(c2ccccc2)c2cc(C)sc2NC(=O)c2ccccc2)n1 (stereo not drawn)
    107	-25	x	x
93. CN(C)Cc1ccc(CNC(=O)c2ccc[nH]2)cc1
    x	-23	89	91
94. Cn1nc(CC(=O)Nc2ccc(N3CCN(C(=O)OC(C)(C)C)CC3)cc2)c2ccccc2c1=O
    97	-15	112	91
95. Cc1ccc(S(=O)(=O)NCc2ccc(/C=N/NC(=O)c3ccco3)o2)cc1
    95	-56	91	102
96. Cc1ccc(CNCc2cccn2-c2nc3ccccc3s2)cc1
    95	3	91	49
97. O=C(NCc1nc(-c2ccccc2)cs1)c1ccccc1
    x	-1	111	98
98. Cc1cccc(C)c1NC(=O)N1CCN(Cc2nc3cc(C(=O)N4CCCC4)ccc3n2C)CC1
    106	14	x	x
99. COC(=O)C1=C(CNCCc2ccccc2)NC(=O)NC1c1ccc(OC)c(OC)c1 (stereo not drawn)
    106	x	91	79
100. Cc1nnc2ccc(N3CC(C)CC(C)C3)nn12 (stereo not drawn)
    102	-28	x	x
101. COc1ccc(-n2c(/C=C/c3c[nH]c4ccc(OC)cc34)nc3ccccc3c2=O)cc1
    103	-8	x	x

# Shown as a hit in GIV-Gai inh (from the list above):
No. | SMILES | GIV-Gai inh | Sa growth 42C | Sa growth 42C second temp
78 | O=C(O)c1cc(NS(=O)(=O)c2ccc(F)cc2)cnc1N1CCCC1 | 77* | x | x
